Assay outcomes from PubChem.
GLA inh pH 4.5 = blocks human alpha-galactosidase A at pH 4.5 | 230,000 tested, under 10 active | purified enzyme, 4-MU-alpha-Gal fluorescence, pH 4.5 | P06280 | activity change, negative = inhibition, % at 105 µM; inconclusive = small, poorly fitted or top-dose-only inhibition, or a rising curve; inactive = flat fitted curve, though single readings scatter; no compound was filed as active;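 also: 0% = full activity with enzyme and -100% = basal without enzyme; dose as in the result columns while the protocol names 77 µM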
miR-21 FLuc = miR-21 reporter, rising signal; AID 2288; 340,000 tested, under 10 active; HeLa miR-21 FLuc reporter, luciferase, 48 h; Potency, µM (top dose mostly 38.3 µM), without a hit: top-dose reporter change, positive = more light; active = well fitted rising curve with a large enough effect; inconclusive = small, poorly fitted or top-dose-only effect; inactive = no such curve, though single readings can be large or run the other way;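 also: % of control where 0% means no effect; miR-21 action dims this reporter so a rising signal means less miR-21 action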
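HeLa miR-21-FLuc reporter line, endogenous miR-21; 2000 cells/well in DMEM/10% FBS; compound titration up to ~40uM final, 48 h, 37 degree Celsius; luciferase detection reagent, 15 min lysis, CCD luminescence.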
Rango-impB inh = inhibitors of Rango-importin beta complex formation. Potency, µM (doses to about 92.2 µM), for the others: at the highest dose inhibition of complex formation. 340,000 compounds, 0.031% hits. Q14974. Rango CFP/YFP FRET sensor + importin beta, 45 min; active = rising FRET ratio curve, often small or poorly fitted; inconclusive = mostly compound fluorescence or quenching in the first reads; inactive = flat curves in all reads;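 also: potency is read from the fitted curve at half-maximal effect; 0% = DMSO wells and 100% = buffer wells lacking importin beta; nearly all actives have a fitted effect of over 15% in size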
Target sequence (Q14974 whole entry, looked up): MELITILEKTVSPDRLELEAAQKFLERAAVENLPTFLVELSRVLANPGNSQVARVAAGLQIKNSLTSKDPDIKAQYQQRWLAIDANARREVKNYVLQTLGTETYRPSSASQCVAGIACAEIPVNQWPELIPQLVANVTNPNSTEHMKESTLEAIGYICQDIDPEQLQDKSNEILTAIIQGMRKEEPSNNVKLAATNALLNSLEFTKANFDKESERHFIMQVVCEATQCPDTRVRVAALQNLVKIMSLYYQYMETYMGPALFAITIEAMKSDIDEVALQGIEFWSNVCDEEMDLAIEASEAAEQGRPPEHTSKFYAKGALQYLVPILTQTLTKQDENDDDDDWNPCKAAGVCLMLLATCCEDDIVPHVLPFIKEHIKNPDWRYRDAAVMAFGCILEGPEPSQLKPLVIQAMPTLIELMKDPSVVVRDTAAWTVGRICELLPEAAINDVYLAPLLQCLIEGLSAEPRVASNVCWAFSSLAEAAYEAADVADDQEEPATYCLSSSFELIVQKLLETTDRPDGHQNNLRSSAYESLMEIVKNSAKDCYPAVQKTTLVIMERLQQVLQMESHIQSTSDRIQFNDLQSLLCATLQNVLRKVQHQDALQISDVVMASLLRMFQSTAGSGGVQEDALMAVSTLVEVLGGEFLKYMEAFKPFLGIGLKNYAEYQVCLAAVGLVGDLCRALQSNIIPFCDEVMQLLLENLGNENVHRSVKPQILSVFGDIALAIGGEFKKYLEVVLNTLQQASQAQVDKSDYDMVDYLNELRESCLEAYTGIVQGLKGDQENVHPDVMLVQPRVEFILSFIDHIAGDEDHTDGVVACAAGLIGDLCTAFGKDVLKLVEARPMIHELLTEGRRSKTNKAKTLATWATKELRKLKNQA
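FRET biosensor Rango (snurportin 1 IBB between N-terminal EYFP and C-terminal Cerulean), 50 nM in PBS/1 mM DTT/0.02% Tween-20/0.1% BSA, preincubated 5 min RT with compound; 0.125 microM importin beta added, 45 min RT, CFP/YFP FRET ratio read.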
Rango dissoc inh = inhibition of RanGTP-driven Rango-importin beta dissociation | O95149+P62826 | Biochemical FRET Rango-importin beta, RanGTP-induced dissociation | Potency, µM (highest dose often 46.1 µM), for the others: at the top dose activity change, negative = inhibition | 340,000 compounds, 0.071% hits | AID 540253; active means falling FRET ratio curve, often poorly fitted, with flat reads before Ran was added; inconclusive means other falling curves, or compound fluorescence or quenching; inactive means flat or rising ratio curve;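 also: potency is read from the fitted curve at half-maximal effect; % of control where 0% means no effect; nearly all actives have a fitted effect of over 45% in size; -100% = wells without RanGTP and RCC1; the record marks most hits as doubtful in a second field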
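Rango/importin beta premix (0.1/0.25 uM final), PBS + 1 mM DTT + 0.02% Tween-20 + 0.1% BSA; cpd 5 min RT; FRET pre-read; + RanGTP-RCC1 (0.6 uM Ran, 2 mM GTP, 0.2 uM RCC1); 45 min RT; FRET post-read, ex 430, em 486/530 nm.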
Starred values were filed as active, the others as inactive; ? = inconclusive; . = not tested or not shown; & = joins results of further samples. This is a subset; the hit share may differ from the screen's.

| GLA inh pH 4.5 | miR-21 FLuc | Rango-impB inh | Rango dissoc inh | structure |
| --- | --- | --- | --- | --- |
| -1 | . | 0.8% | 11% | NOCC(=O)O |
| -4 | . | 0.8% | 1% | CCCCNc1ccc(C(=O)OCCOCCOCCOCCOCCOCCOCCOCCOCCOC)cc1 |
| . | . | -1.5% | -11% | CC12CCC(=O)C=C1CCC1C2CCC2(C)C1CCC2(O)C(=O)CO (stereo not drawn) |
| 1&-1&1 | -12%&-5% | -3.7% | 14% | CN(C)CCCC1(c2ccc(F)cc2)OCc2cc(C#N)ccc21 (stereo not drawn) |
| 3 | -5% | -1.5% | 1% | CC(=O)Nc1ccc(CC(=O)O)cc1 |
| 6 | . | -0.3% | 2% | C[N+]1(C)CCC(=C(c2ccccc2)c2ccccc2)CC1 |
| -2&-1&-12 | 1% | -2.8% | 12% | C1COC(NC(C2CC2)C2CC2)=N1 |
| 2&4&7&2 | -5%&2%&-1% | 0.4%&1.3%&1.9% | -9%&3%&24% | Cc1ccc(N(CC2=NCCN2)c2cccc(O)c2)cc1 |
| -5 | . | -2.5% | -4% | Oc1ccc2c(c1)OCC1(O)Cc3cc(O)c(O)cc3C21 (stereo not drawn) |
| . | . | 0.9% | 3% | CC1(C)O[C@H]2CC(=O)OC[C@@]23C1CC(=O)[C@]1(C)C3CC[C@@]2(C)[C@H](c3ccoc3)OC(=O)[C@H]3O[C@]321 (stereo partly drawn) |
| -6 | . | 8.8%&2.1% | ? | Oc1ccc(C2CNCCc3c2cc(O)c(O)c3Cl)cc1 (stereo not drawn) |
| 5 | . | -2.9% | -6% | CCc1ccc(CCOc2ccc(CC3SC(=O)NC3=O)cc2)nc1 (stereo not drawn) |

4 of these compounds, reformatted.
CC1(C)O[C@H]2CC(=O)OC[C@@]23C1CC(=O)[C@]1(C)C3CC[C@@]2(C)[C@H](c3ccoc3)OC(=O)[C@H]3O[C@]321 (stereo partly drawn)
  GLA inh pH 4.5: .
  miR-21 FLuc: .
  Rango-impB inh: 0.9%
  Rango dissoc inh: 3%

C[N+]1(C)CCC(=C(c2ccccc2)c2ccccc2)CC1
  GLA inh pH 4.5: 6
  miR-21 FLuc: .
  Rango-impB inh: -0.3%
  Rango dissoc inh: 2%

CCCCNc1ccc(C(=O)OCCOCCOCCOCCOCCOCCOCCOCCOCCOC)cc1
  GLA inh pH 4.5: -4
  miR-21 FLuc: .
  Rango-impB inh: 0.8%
  Rango dissoc inh: 1%

CCc1ccc(CCOc2ccc(CC3SC(=O)NC3=O)cc2)nc1 (stereo not drawn)
  GLA inh pH 4.5: 5
  miR-21 FLuc: .
  Rango-impB inh: -2.9%
  Rango dissoc inh: -6%

Additional entries follow.
| GLA inh pH 4.5 | miR-21 FLuc | Rango-impB inh | Rango dissoc inh | structure |
| --- | --- | --- | --- | --- |
| -2 | . | -1.0% | -7% | Oc1cc2c(cc1O)[C@H]1c3ccc(O)c(O)c3OC[C@@]1(O)C2 |
| -3 | 7% | 3.7% | 2% | COc1ccc(C[C@H]2COC(=O)[C@@H]2Cc2ccc(OC3OC(CO)C(O)C(O)C3O)c(OC)c2)cc1OC (stereo partly drawn) |
| -6&-2 | . | 2.2% | 12% | Cc1ccc(=O)n(-c2ccccc2)c1 |
| -1&-5&1 | 0% | ? | -11% | O=c1oc2c(O)c(O)cc3c(=O)oc4c(O)c(O)cc1c4c23 |
| 2&-4&0 | -8% | . | . | CCn1cc(C(=O)O)c(=O)c2cnc(N3CCNCC3)nc21 |
| 7 | 4% | -2.2% | 6% | CCCCCC(=O)O[C@]1(C(C)=O)CC[C@H]2[C@@H]3CCC4=CC(=O)CC[C@]4(C)[C@H]3CC[C@@]21C |
| -5 | . | 0.0% | 0% | NC(N)=O |
| . | . | -1.5% | -4% | COc1cc([C@@H]2Oc3cc(C4Oc5cc(O)cc(O)c5C(=O)[C@H]4O)ccc3O[C@H]2CO)ccc1O (stereo partly drawn) |
| 4&-4&1&-5 | -6%&-7% | -0.8% | 21% | CC(=O)CCCCn1c(=O)c2c(ncn2C)n(C)c1=O |
| . | . | 0.5% | 0% | COC(=O)C1=CO[C@@H](O[C@@H]2O[C@H](CO)[C@@H](O)[C@H](O)[C@H]2O)C2C1C[C@H](O)[C@@H]2C (stereo partly drawn) |
| . | . | 4.0% | -3% | NC1CCN(c2nc3c(cc2F)c(=O)c(C(=O)O)cn3-c2ccc(F)cc2F)C1 (stereo not drawn) |
| -7&-13&9&1 | -22% | -0.1% | 5% | O=C(O)c1cccnc1Nc1cccc(C(F)(F)F)c1 |

Next part (6 carried over from the part before).
| GLA inh pH 4.5 | miR-21 FLuc | Rango-impB inh | Rango dissoc inh | structure |
| --- | --- | --- | --- | --- |
| -5 | . | 0.0% | 0% | NC(N)=O |
| . | . | -1.5% | -4% | COc1cc([C@@H]2Oc3cc(C4Oc5cc(O)cc(O)c5C(=O)[C@H]4O)ccc3O[C@H]2CO)ccc1O (stereo partly drawn) |
| 4&-4&1&-5 | -6%&-7% | -0.8% | 21% | CC(=O)CCCCn1c(=O)c2c(ncn2C)n(C)c1=O |
| . | . | 0.5% | 0% | COC(=O)C1=CO[C@@H](O[C@@H]2O[C@H](CO)[C@@H](O)[C@H](O)[C@H]2O)C2C1C[C@H](O)[C@@H]2C (stereo partly drawn) |
| . | . | 4.0% | -3% | NC1CCN(c2nc3c(cc2F)c(=O)c(C(=O)O)cn3-c2ccc(F)cc2F)C1 (stereo not drawn) |
| -7&-13&9&1 | -22% | -0.1% | 5% | O=C(O)c1cccnc1Nc1cccc(C(F)(F)F)c1 |
| -8&10 | -36% | 2.8% | 2% | O=C(O)CCC(=O)c1ccc(-c2ccccc2)cc1 |
| . | -8% | -2.4% | -10% | CN(C)CCC[C@]1(c2ccc(F)cc2)OCc2cc(C#N)ccc21 |
| . | -6% | -4.9% | 3% | COc1ccc(-c2cc(=O)c3c(O)cc(O[C@@H]4O[C@H](CO[C@@H]5O[C@@H](C)[C@H](O)[C@@H](O)[C@H]5O)[C@@H](O)[C@H](O)[C@H]4O)cc3o2)cc1O |
| 0&0&2 | -11% | -1.1% | -18% | CCCCNc1ccc(C(=O)OCCN(C)C)cc1 |
| . | . | 2.4% | -16% | CCOC(=O)[C@H](CCc1ccccc1)N[C@@H](C)C(=O)N1Cc2ccccc2C[C@H]1C(=O)O |
| -6&7 | -6% | -7.9% | 26% | C/C=C/C(=O)N(CC)c1ccccc1C |
| . | . | -0.4% | -15% | COc1ccccc1N1CCN(CCCN=C2CC(=O)N(C)C(=O)N2C)CC1 |
| 0 | ? | ? | -1% | C=CC[n+]1ccc(/C=C2\C=Cc3cc(C)ccc3N2CC)c2ccccc21 |
| -8&-3&1 | -15% | ? | -4% | CCN(CC)CCOC(=O)c1ccc(N)cc1 |
| 2&7&-6&3 | -12%&-8%&-10% | -2.9% | -13% | COc1ccc(C2CNC(=O)C2)cc1OC1CCCC1 (stereo not drawn) |
| . | . | ? | -13% | Cc1c(C(=O)O)c(O)cc2c1C(=O)c1c(O)c([C@@H]3O[C@H](CO)[C@@H](O)[C@H](O)[C@H]3O)c(O)c(O)c1C2=O |
| 6 | -4% | -2.0% | -8% | C/C=C(/C)C(=O)OC(C)(C)[C@@H]1Cc2c(ccc3ccc(=O)oc23)O1 |
| . | . | 2.9% | -8% | COc1cc(-c2oc3cc(O)cc(O)c3c(=O)c2O[C@@H]2O[C@H](COC3O[C@@H](C)[C@H](O)[C@@H](O)[C@H]3O)[C@@H](O)[C@H](O)[C@H]2O)ccc1O (stereo partly drawn) |
| -12&-15&-28 | 6% | . | . | COc1cc2ncnc(Nc3cccc(Cl)c3)c2cc1OC |
| -3 | 2% | . | . | CCCc1nc(C(C)(C)O)c(C(=O)O)n1Cc1ccc(-c2ccccc2-c2nn[nH]n2)cc1 |
| . | . | 0.2% | -3% | COc1ccc(-c2cc(=O)c3c(O)cc(OC4OC(COC5OC(C)C(O)C(O)C5O)C(O)C(O)C4O)cc3o2)cc1O (stereo not drawn) |
| -1 | 1% | -3.7% | ? | CN1CCCN=C1COC(=O)C(O)(c1ccccc1)C1CCCCC1 (stereo not drawn) |
| -3 | 3% | -0.5% | -4% | CC1Cc2ccccc2N1NC(=O)c1ccc(Cl)c(S(N)(=O)=O)c1 (stereo not drawn) |
| 5 | -20% | ? | -15% | CCC(NC(C)C)C(O)c1ccc(O)c2[nH]c(=O)ccc12 (stereo not drawn) |
| 9 | -1% | -1.7% | -20% | Cc1cccc2c1NC(=O)C2(c1ccc(O)cc1)c1ccc(O)cc1 |
| 1 | -20% | -1.3% | -2% | CC(C)=CCOc1c2ccoc2cc2oc(=O)ccc12 |
| 0 | ? | -0.1% | 0% | Cc1cncn1CCc1nc2c3ccccc3nc(SCC(=O)Nc3cccc(Cl)c3)n2n1 |
| 1 | . | 0.3% | -6% | N[C@@H](Cc1c[nH]c2ccc(O)cc12)C(=O)O |
| -1&10 | 0% | . | . | N#Cc1ccc(C(c2ccc(C#N)cc2)n2cncn2)cc1 |

Individual results from the results shown.
Entry of Cc1cccc2c1NC(=O)C2(c1ccc(O)cc1)c1ccc(O)cc1 under GLA inh pH 4.5: 9
Entry of Cc1ccc(=O)n(-c2ccccc2)c1 under Rango-impB inh: 2.2%
